KCNQ2 pot – potentiators of rat KCNQ2 potassium channel; CHO-K1 KCNQ2, FluxOR thallium flux fluorescence; hits give high values; B-score at 10 µM; actives 0.54% (n = 310,000);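 active = fluorescence ratio B-score at least 3 SD of library B-scores, with initial fluorescence B-score within 3 SD, cut at about 5.3 in these data; same plate scores as AID 2156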;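 note: B-score of peak minus minimum over baseline fluorescence ratio after K+ and Tl+ stimulus; positive B-score means potentiation of KCNQ2 with more thallium influx and brighter signal; only the inactives scoring about 0 or higher are listed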
Target sequence (O88943 whole entry, looked up): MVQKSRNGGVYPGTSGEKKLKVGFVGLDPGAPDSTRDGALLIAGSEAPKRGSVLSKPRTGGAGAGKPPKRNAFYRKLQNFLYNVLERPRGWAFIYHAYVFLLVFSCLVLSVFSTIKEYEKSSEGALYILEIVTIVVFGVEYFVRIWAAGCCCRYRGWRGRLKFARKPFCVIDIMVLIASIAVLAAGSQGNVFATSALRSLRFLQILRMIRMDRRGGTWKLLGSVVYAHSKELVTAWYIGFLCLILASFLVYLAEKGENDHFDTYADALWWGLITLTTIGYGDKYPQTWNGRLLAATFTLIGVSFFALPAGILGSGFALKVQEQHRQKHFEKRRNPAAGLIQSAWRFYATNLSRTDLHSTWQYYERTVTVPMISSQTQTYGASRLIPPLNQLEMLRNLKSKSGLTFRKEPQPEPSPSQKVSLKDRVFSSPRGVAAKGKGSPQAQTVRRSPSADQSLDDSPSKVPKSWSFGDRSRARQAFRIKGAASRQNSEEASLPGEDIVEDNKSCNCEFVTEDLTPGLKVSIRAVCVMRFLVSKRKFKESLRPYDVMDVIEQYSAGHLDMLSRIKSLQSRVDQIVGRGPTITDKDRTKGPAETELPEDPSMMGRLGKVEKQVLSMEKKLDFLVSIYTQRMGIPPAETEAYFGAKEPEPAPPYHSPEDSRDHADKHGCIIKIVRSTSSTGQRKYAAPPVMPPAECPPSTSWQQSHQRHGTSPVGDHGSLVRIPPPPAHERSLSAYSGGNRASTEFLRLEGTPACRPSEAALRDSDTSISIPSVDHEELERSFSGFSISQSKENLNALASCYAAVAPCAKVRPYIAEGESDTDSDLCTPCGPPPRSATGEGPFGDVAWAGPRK
KCNQ2 pot baseline – recorded beside KCNQ2 pot, whose call it bears; B-score; compound at 10 µM; measured here: initial fluorescence intensity artifact check;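 brightness before thallium and not channel activity; 0 = typical well and far values either way flag optical interference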
* = called active by the depositor. An excerpt, so the mix of outcomes need not match the whole.

SMILES	KCNQ2 pot	KCNQ2 pot baseline
O=C(O)c1ccc2c(c1)CCCN2	0.82	0.2
COc1ccc(NC(=O)CCC(=O)OC(C(=O)c2ccccc2)c2ccccc2)cc1 (centres undefined)	0.16	2.6
CN1C(=O)N(C)C2(c3ccccc3)NNC(N)=NC12c1ccccc1 (centres undefined)	1.3	-2
Cc1cc2cc(CCNC(=O)c3ccc(S(=O)(=O)N4CCCC4)cc3)c(=O)[nH]c2cc1C	0.87	-0.63
Cc1ccc(CNC(=O)C2CC3Cn4c(nc5cc(Cl)c(Cl)cc54)C3N2C)o1 (centres undefined)	0.22	0.01
COc1ccc(-c2nn(C)c(=O)c3ccccc23)cc1CNC(=O)c1ccco1	0.35	1.3
COC(=O)c1nn(-c2nc(-c3ccc(OC)c(OC)c3)cc(C(F)(F)F)n2)cc1[N+](=O)[O-]	1.5	-0.16
CCCCn1c(N)c(N(CCOC)C(=O)c2cc(-c3ccccc3Cl)nc3ccccc23)c(=O)[nH]c1=O	0.8	-4.1
COc1ccc(C2C(C#N)=C(C)NC3=C2C(=O)CC(C)(C)C3)cc1 (centres undefined)	1.1	-0.32
Nc1nc(-c2ccco2)cs1	0.97	0.78
CCN(CC)C(=O)C(=O)Nc1ccc(F)c(Cl)c1	0.35	-0.11
Cc1ccc(C(=O)N[C@H](C(=O)OCC(=O)Nc2cccc(S(N)(=O)=O)c2)C(C)C)cc1	1.3	-0.93
O=C(Cc1ccc(Br)cc1)NC1CCSC1=O (centres undefined)	1.2	2.4
O=c1[nH]c(C2CCCN(S(=O)(=O)c3ccccc3)C2)nc2c1nnn2Cc1ccc(OC(F)(F)F)cc1 (centres undefined)	0.06	-0.82
NC(=O)c1ccc(-c2ncc(-c3ccccc3)o2)cc1	1.2	0.21
CN(CCO)c1nc(N)c2c(N)nc3c(c2c1C#N)CC(=O)N3C1CCCC1	0.22	0.11
Cc1cnc(C(=O)Nc2ccccc2C(=O)N2CCOCC2)cn1	0.53	0.07
O=C(CSc1ncn[nH]1)CSc1ncn[nH]1	0.06	0.17
O=S(=O)(c1ccc(N2CCOCC2)nc1)N(Cc1ccccn1)Cc1ccccn1	0.98	-0.08
COc1cc(C(=O)NCc2nnc(SCC(=O)Nc3cc(C)on3)o2)cc(OC)c1OC	0.2	0.58
CCC1(c2ccccc2)NC(=S)N(c2cccc(C)c2C)N1 (centres undefined)	1	-0.07
Cc1csc(NC(=O)CSC2=NS(=O)(=O)c3cc(F)ccc3N2)n1	0.32	0.39
O=C(NCc1ccccc1)c1ccc2c(c1)OCCO2	0.11	-1.1
Cc1ccc(NC(=O)c2cncc(Br)c2)c([N+](=O)[O-])c1	0.66	-0.48
COc1cc2c(cc1OC)CN(C(=O)Cc1c(F)cccc1Cl)CC2	3.4	0.79
Other records follow.
SMILES	KCNQ2 pot	KCNQ2 pot baseline
COCCCNC(=O)c1ccc(NS(C)(=O)=O)cc1	0.12	0.03
CCOC(=O)CN1C(=O)C2(OCCCO2)c2cc(Br)ccc21	0.06	0.31
O=C(NCCCN1CCOCC1)c1cn(-c2ccccc2)nc1-c1cccs1	0.46	-0.59
CC(=O)Nc1ccccc1NS(=O)(=O)c1cccc([N+](=O)[O-])c1	0.85	3.3
COc1cc(C)c(C(=O)Oc2cc(C)c(C(=O)O)c(O)c2C)c(O)c1C	5.2	-1.3
CCOC(=O)C1=C(C)OC(N)=C(C(=O)OCC)C1c1cccnc1 (centres undefined)	0.15	-0.57
O=C(NCCCNC(=O)c1ccccn1)c1ccc(Br)cc1	0.35	-1.6
O=C(COc1ccc2c3c(c(=O)oc2c1)CCC3)N1CCCCC1	1.1	0.02
CC(NC(=O)c1ccc(Br)cc1)c1ccc2c(c1)CCCC2 (centres undefined)	7.6*	0.36*
Cc1cccc(NC(=O)N2CCN(Cc3ccc4c(c3)OCO4)CC2)c1C	0.44	2.1
O=C(CSc1nnc(NC(=O)C2CC2)s1)NCc1ccccc1	0.94	0.18
COc1ccc(C(=O)Nc2ccnn2C2CCN(C(=O)CCC(F)(F)F)CC2)cc1	1.1	-1
CC1CN(CC(=O)Nc2ccc(S(N)(=O)=O)cc2)CC(C)O1 (centres undefined)	1.4	-0.25
COc1ccccc1NS(=O)(=O)c1cc(C(=O)NCC(C)(C)N2CCOCC2)ccc1C	6.7*	-0.03*
Cc1cc(C)n(-c2nnc(N3CCN(c4ccccc4)CC3)nn2)n1	1.5	-1.6
COc1cc(OC)c(OC)cc1/C=N/N(C)c1ccccc1	0.44	0.89
Nc1ncnc2c1ncn2[C@@H]1O[C@H](CO)C[C@H]1O	0.06	0.02
O=CN1CCN(C(C(=O)NC2CCCC2)c2cc3c(cc2[N+](=O)[O-])OCO3)CC1 (centres undefined)	0.53	-0.9
CCCOC1CCCN(C(=O)c2ccc(OC3CCN(C(=O)CCOC)CC3)cc2)C1 (centres undefined)	0.92	0.04
O=S(=O)(c1ccc(N2CCN(S(=O)(=O)c3ccccc3)CC2)nc1)N1CCCC1	0.75	-1.2
COC(=O)Nc1ccc(S(=O)(=O)N2CCCC(C(=O)NC3CCS(=O)(=O)C3)C2)cc1 (centres undefined)	0.84	-0.93
COc1ccc(NC(=O)C2CCN(S(=O)(=O)c3cccc4cccnc34)CC2)cc1OC	0.24	-1.3
O=C(CN1CCCCC1)N1N=C(c2cccs2)CC1c1cccs1 (centres undefined)	0.54	-1.1
O=C(NCCCc1ccccc1)c1ccccc1	0.85	0.03
CCCOc1cc(CN2CCCCC2)cc(C(C)=O)c1	0.25	-0.87

An excerpt from above in order of the KCNQ2 pot baseline value, low to high.
SMILES	KCNQ2 pot	KCNQ2 pot baseline
COC(=O)Nc1ccc(S(=O)(=O)N2CCCC(C(=O)NC3CCS(=O)(=O)C3)C2)cc1 (centres undefined)	0.84	-0.93
CCOC(=O)CN1C(=O)C2(OCCCO2)c2cc(Br)ccc21	0.06	0.31
CC(NC(=O)c1ccc(Br)cc1)c1ccc2c(c1)CCCC2 (centres undefined)	7.6*	0.36*
Cc1cccc(NC(=O)N2CCN(Cc3ccc4c(c3)OCO4)CC2)c1C	0.44	2.1

Following part:
SMILES	KCNQ2 pot	KCNQ2 pot baseline
Brc1ccc(-c2cnco2)cc1	1.3	-0.99
O=C1c2ccccc2C(Nc2ccc3c(c2)OCCO3)N1Cc1ccco1 (centres undefined)	1	0.09
COC(=O)c1c(C)[nH]c(-c2csc(N)n2)c1C	0.47	1.9
CC(Sc1nnnn1C)C(=O)Nc1ccc(N2CCOCC2)cc1 (centres undefined)	0.26	-0.23
Cn1cccc1/C=N/n1c(-c2ccc(Cl)cc2Cl)n[nH]c1=S	3.1	-1.4
O=C(COC(=O)c1ccccc1NCCO)NCc1cccs1	0.42	0.04
COc1cc(S(=O)(=O)N2CCN(c3ccccc3F)CC2)c(OC)cc1Cl	0.05	-1.7
CC(C)Oc1ccc(CN2CCC(n3nccc3NC(=O)CCc3ccccc3)CC2)cc1	0.3	0.89
Clc1ccc(/C=N/Nc2ccccn2)cc1	0.31	0.15
Cc1cc(NC(=O)Cn2c(=O)c3c(ncn3CC(C)C)n(Cc3ccccc3)c2=O)no1	0.43	-0.94
Cc1cc(N2CCC(C(=O)N3CCN(c4cccc(C)c4C)CC3)CC2)n2ncnc2n1	0.38	-0.03
Cc1ccn2cc(CNS(=O)(=O)c3ccc4c(c3)OCCO4)nc2c1	0.8	2
CC(C)CC(NC(N)=O)C(=O)Nc1cccc([N+](=O)[O-])c1 (centres undefined)	0.71	-0.61
Cc1cc(NC(=O)C2C3C(=O)N(Cc4ccc(Cl)cc4)C(C(=O)NCc4ccccc4)C34C=CC2(C)O4)no1 (centres undefined)	0.46	2.1
COc1ccc(OC)c(S(=O)(=O)Nc2cc(C)on2)c1	0.01	-0.39
Cn1c(SCC(=O)NC2CC2)nnc1-c1ccccc1Cl	1.2	-0.22
CCOC(=O)C1Nc2ccccc2C2c3ccccc3CC12 (centres undefined)	0.01	-1.2
Cc1ccc(C)c(S(=O)(=O)N2CCN(CC(=O)Nc3ccc([N+](=O)[O-])cc3)CC2)c1	0.25	-1.8
O=C(NNS(=O)(=O)c1ccc(Cl)cc1Cl)c1cc2ncc(C(F)(F)F)cc2s1	0.55	1.2
Cn1nc(SCC(=O)O)sc1=S	1.6	0.45
COc1cccc(NC(=O)CSc2nnc3cc(C)nc(N)n23)c1	0.7	0.4
O=C(N/N=C/c1cn(Cc2ccccc2)c2ccccc12)c1cc(O)cc(O)c1	0.03	0.13
C=CCNC(=S)NC(=O)c1ccc(C)c(Br)c1	5.7*	-0.74*
CC(NC(=O)CCC(=O)N1CCN(S(=O)(=O)c2ccc(Cl)cc2)CC1)c1ccccc1 (centres undefined)	0.04	0.33
CC(C)Oc1ccc(Cc2n[nH]c(=S)n2Cc2ccccc2)cc1Cl	0.48	-0.01
Next entries.
SMILES	KCNQ2 pot	KCNQ2 pot baseline
CCc1ccc(NC(=O)NCc2ccc3c(c2)OCO3)cc1	2.4	0.93
CCc1ccccc1N(C1=NCCCS1)S(=O)(=O)c1ccc(C(C)(C)C)cc1	0.08	-0.11
O=C(NN=C1CCCC1)c1n[nH]c2c1CCCC2	0.9	1.6
COc1ccc(N(CC(=O)Nc2cccc(N(C)S(C)(=O)=O)c2)S(C)(=O)=O)cc1OC	1.4	-0.63
Cc1ccc(NC(=O)CCc2ccc(S(=O)(=O)NC3CCCCC3)cc2)cc1	1.4	-1.7
O=C(c1cc([N+](=O)[O-])ccc1Cl)N1CCN(c2ccccn2)CC1	0.12	-1.4
CC(=O)Nc1ccc(S(=O)(=O)NCC(=O)NCCCc2ccccc2)cc1	0.56	0.28
CCC(=O)c1cn(CC(=O)NCC2CCCO2)c2ccccc12 (centres undefined)	0.03	1
CCOc1ccccc1NC(=O)CCS(=O)(=O)c1ccc2c(c1)CC(C)N2C(C)=O (centres undefined)	0.9	0.8
COc1ccc2nc(SCCC(=O)O)cc(C)c2c1	0.01	0.04
Cc1nc2c(C)cccc2c2c1COC2	0.44	0.01
Cc1cc2c(Nc3ccc(O)cc3)ncnc2s1	3.4	1
CN(CC(=O)NC(=O)NC(C)(C)C)CC(=O)Nc1ccccc1Cl	2.7	-1.2
CC(C)C(C)NC(=O)COc1ncnc2sccc12 (centres undefined)	0.84	0.6
N/C(Cc1ccccc1Sc1ccccc1)=N\O	0.89	0.04
CCOc1ccc(NC(=O)CN2C(=O)COc3ccc(S(=O)(=O)N4CCCC4)cc32)cc1	0.99	0.4
CN1CCN(C(=O)c2cc(S(=O)(=O)Nc3ccccc3F)c(Cl)cc2Cl)CC1	0.98	0.02
Clc1ccc(-c2noc3c2-c2nc(Cc4cccc5ccccc45)sc2CC3)cc1	0.85	-0.47
Cc1ccc2cc(C#N)c(SCC(=O)N3CCCc4ccccc43)nc2c1	1.6	-0.37
O=C(c1cc(COc2ccc(F)cc2Cl)on1)N(CCO)Cc1cccs1	2	0.37
COc1ccc(/C=C/C(=O)Nc2ccccc2C(F)(F)F)cc1	0.58	2.4
Cn1c(SCC(=O)NCC2CCCO2)ncc(C(=O)Nc2ccc(F)cc2)c1=O (centres undefined)	0.07	1
COc1ccc(C(=O)NCC(=O)OCC(=O)Nc2cccc(S(=O)(=O)N3CCCC3)c2)cc1	1.5	1.2
CC1(C)CC(NCCN2CCN(C3=CC(=C(C#N)C#N)CC(C)(C)C3)CC2)=CC(=C(C#N)C#N)C1	1.2	-0.61
NC(=O)Cn1c(O)c(N=NC(=O)CNC(=O)/C=C/c2ccccc2)c2ccccc21	1.4	-0.25

One compound at a time, from the list above. Order of screens: KCNQ2 pot | KCNQ2 pot baseline
N/C(Cc1ccccc1Sc1ccccc1)=N\O is listed as 0.89 | 0.04
CCc1ccc(NC(=O)NCc2ccc3c(c2)OCO3)cc1 is listed as 2.4 | 0.93
Cc1cc2c(Nc3ccc(O)cc3)ncnc2s1 is listed as 3.4 | 1
COc1ccc(/C=C/C(=O)Nc2ccccc2C(F)(F)F)cc1 is listed as 0.58 | 2.4
NC(=O)Cn1c(O)c(N=NC(=O)CNC(=O)/C=C/c2ccccc2)c2ccccc21 is listed as 1.4 | -0.25

Next records follow:
SMILES	KCNQ2 pot	KCNQ2 pot baseline
O=C(COC(=O)CCC(=O)c1ccc(F)cc1)Nc1ccc(N2CCOCC2)cc1	0.4	-0.86
O=C(CN1CCCC1)N1c2ccccc2Sc2ccc(Cl)cc21	0.13	0.05
CCn1c(CNC(=O)c2ccco2)nnc1SCCOc1ccccc1	1.5	-0.37
Cc1ccc(NC(=O)N/C=C/c2ccco2)c(C)c1	0.41	-1.2
O=C(Nc1ccc(Br)cc1)c1ccc(N2C(=O)C3CCCCC3C2=O)cc1 (centres undefined)	0.61	-1.7
CCC(CC)c1nnc(NC(=O)c2c(-c3ccccc3)noc2C)s1	0.6	-0.76
COc1cccc(-n2c(COc3ccc(C)cc3)nnc2SCC(N)=O)c1	1.2	0.01
O=C(Nc1nc(-c2ccccc2)cs1)Nc1ccc(F)cc1F	0.22	0.5
COc1ccc(C2NC(=O)NC(O)(C(F)(F)F)C2C(=O)c2ccc(C)cc2)cc1 (centres undefined)	1.5	-1.2
Cc1ccc(-n2ncc3c(=O)n(Cc4cccnc4)cnc32)cc1	1.3	0.65
COc1cccc(OCc2cc(C(=O)NCCN3CCCCC3CO)no2)c1 (centres undefined)	0.27	-0.73
O=S(=O)(c1cc(Br)c(Cl)s1)N1CCCC1	0.74	-1.5
COc1ccc(N2C(=O)C3CCCN3C2c2cccc(OC)c2OC)cc1 (centres undefined)	0.61	-0.05
CC(=O)Nc1ccc(N(C(=O)CNC(=O)c2cccs2)C(C(=O)NC(C)(C)C)c2ccccc2)cc1 (centres undefined)	1.5	-2.4
O=C(c1ccccc1C(=O)N(c1ccccc1)c1ccccc1)N1CCCCC1	0.06	-2

2 entries from above, set out differently:
CCC(CC)c1nnc(NC(=O)c2c(-c3ccccc3)noc2C)s1
  KCNQ2 pot = 0.6 | KCNQ2 pot baseline = -0.76
COc1cccc(-n2c(COc3ccc(C)cc3)nnc2SCC(N)=O)c1
  KCNQ2 pot = 1.2 | KCNQ2 pot baseline = 0.01

Compound activity from PubChem BioAssay.
